# Screening data (PubChem BioAssay)
# Marburg entry: qHTS for Inhibitors of binding or entry into cells for Marburg Virus; 6.5% of 18,000 active; Potency, µM (titrated, usually from 49.2 µM), inactives show top-dose activity change, negative = inhibition, actives largely listed as inhibitors; Marburg virus pseudotype entry/binding inhibition, cell-based; control for the full effect not named in the record; many of its hits are not listed in these tables; active means well fitted inhibition curve with a large enough effect; inconclusive means small, poorly fitted or top-dose-only effect; inactive means no such curve, though single readings can be large or run the other way; tested in HEK293 cells; note: luciferase read-out
# Lassa entry: qHTS for Inhibitors of binding or entry into cells for Lassa Virus. Lassa virus pseudotyped entry inhibition, cell-based qHTS; control for the full effect not named in the record; many of its hits are not listed in these tables. Potency, µM (highest dose often 49.2 µM), for inactives: top-dose activity change, negative = inhibition, hits mostly inhibitors. 4.1% of 18,000 active; active = well fitted inhibition curve with a large enough effect; inconclusive = small, poorly fitted or top-dose-only effect; inactive = no such curve, though single readings can be large or run the other way; tested in HEK293 cells; note: luciferase read-out
# Numbers without * were called inactive; ? = inconclusive; nt = not tested or not shown; & = joins results of further samples; ! = a repeat was not active; [ ] = another dose, or the depositor's remark. % is set by controls: 0 for no effect and ±100 for the full control effect; potency is the fitted concentration of half-maximal effect.
# The line under a structure holds: Lassa entry, Marburg entry
CCOC(=O)C1C(C(=O)OC)=C(c2ccc(F)cc2)c2ccc(OC)cc2N1S(=O)(=O)C(F)(F)F (stereo not given)
  -17.9%, 5.6%
CC(C1CCCC(=O)C1)[N+](=O)[O-] (stereo not given)
  -0.6%, 15.2%
N#CC(C#N)=C(N)/C(C#N)=C/c1ccc2[nH]ccc2c1
  7.9%&0.3%, 17.2%&13.2%
COc1cccc(-c2cc3c(c(OC)c2)OCCN(Cc2ccccc2O)C3)n1
  5.62µM*, -20.8%
Cc1ccccc1Nc1oc(-c2ccccc2)nc1-c1ccccc1
  1.9%, ?
CCn1nc(C)cc1C(=O)NCC1Cc2cc(C)cc(-c3ccccc3C(=O)OC)c2O1 (stereo not given)
  -11.3%, -18.7%
COC(=O)N[C@H](C[N+](=O)[O-])c1cccc(C)c1
  -0.3%, -7.1%
CC(=O)Oc1ccc2c(c1C(C)C)CCC1C(C)(C)CCC[C@@]21C (stereo not given in full)
  -1.3%, 9.2%
CSCC[C@H](C=O)NC(=O)[C@H](CC(C)C)NC(=O)[C@H](CC(C)C)NC(C)=O
  18.2%, ?
COC(=O)N[C@@H](c1ccco1)C(C(C)=O)C(=O)OC (stereo not given in full)
  6.1%[8.59 µM], -27.0%[8.59 µM]
COC(=O)C1CCN(Cc2ccc3c(c2)CN(C(=O)c2sc(C)nc2C)CCO3)CC1
  -1.7%, -17.9%
C=C[C@@]1(C)CCC=C2C(=O)CCC[C@H]21
  -27.4%[8.59 µM], ?
CC(C)[C@@]1(NC(=O)[C@@H]2C[C@@H]3c4cccc5[nH]cc(c45)C[C@H]3N(C)C2)O[C@@]2(O)[C@@H]3CCCN3C(=O)[C@H](Cc3ccccc3)N2C1=O
  35.5µM*!, 7.08µM*
CCCCC/C=C\C/C=C\C/C=C\C/C=C\CCCC(=O)O
  ?, ?
CCN1CCCC1CNC(=O)c1cnn(-c2nccc(-c3cc(OC)ccc3OC)n2)c1C (stereo not given)
  5.2%, -26.8%
COc1cc2c(cc1O)CCN[C@]21CS[C@@H]2c3c(OC(C)=O)c(C)c4c(c3[C@H](COC1=O)N1[C@@H]2[C@H]2c3c(cc(C)c(OC)c3O)C[C@@H]([C@@H]1O)N2C)OCO4
  39.8µM*!, ?
COc1cccc(-c2cc(=O)c3cc(NC(=O)c4ccc(N(C)C)cc4)ccc3[nH]2)c1
  ?, 3.98µM*
NC1C=CC=C(C(=O)O)C1 (stereo not given)
  -3.1%, -3.3%
COC(=O)CCCOc1ccc(Cl)cc1Cl
  -11.8%, 3.6%
Oc1c(I)cc(I)c2cccnc12
  ?, -4.1%
CCC(N)Cc1c[nH]c2ccccc12 (stereo not given)
  ?, -40.1%[107 µM]
COc1cc2c(CCNC(C)=O)c[nH]c2cc1Cl
  -1.5%&4.6%, 18.0%&39.0%
CC[C@@]1([C@@H]2O[C@@H]([C@H]3O[C@@](O)(CO)[C@H](C)C[C@@H]3C)C[C@@H]2C)CC[C@H]([C@]2(C)CC[C@]3(C[C@H](O)[C@@H](C)[C@@H]([C@@H](C)[C@@H](OC)C(C)C(=O)O)O3)O2)O1 (stereo not given in full)
  0.447µM*, 0.282µM*
CCCCC1=CC2=C(c3ccco3)C(=O)C(C)(OC(=O)c3ccc(Cl)nc3)C(=O)C2=CO1 (stereo not given)
  1.9%, -4.5%
CCCCC/C=C\C/C=C\C/C=C\CCCCCCC(=O)NC(C)C(=O)O (stereo not given)
  2.5%, -3.6%
CC[C@]1(c2ncc[nH]2)Cc2ccccc2O1
  4.0%, -18.5%
COC(=O)C1=C[C@@]2(c3ccc(F)cc3[C@@H](OC)[C@@H]2C)[C@@H]2C=C[C@H]1C2
  -12.3%[8.59 µM], 2.1%[8.59 µM]
CCN1C(=NCCc2ccc(Br)cc2)N[C@@H](c2ccccc2)[C@H](C(=O)OC)[C@H]1C
  10.9%[8.59 µM], 33.4%[activator][8.59 µM]
COC(=O)C1=C(C)N(Cc2ccccc2)C(=NCC(C)C)NC1c1cccc(F)c1 (stereo not given)
  39.7%[activator][8.59 µM], 19.6%[8.59 µM]
CCCN1CCC=C(c2ccc(Nc3nc(Nc4ccccc4C(N)=O)c4cc[nH]c4n3)c(C)c2)C1
  -1.5%, ?
COc1ccc(CC2c3cc(OC)c(OC)cc3CCN2C)cc1OC (stereo not given)
  -19.4%, 4.0%
CCC1CN(CCC(=O)N2CCN(c3ncccn3)CC2)Cc2cc(OC)ccc2O1 (stereo not given)
  27.6%, ?
COc1ccc(C2(C#N)CCC(C(=O)O)CC2)cc1OC1CCCC1 (stereo not given)
  -9.9%, 6.5%
CCOC(=O)C1=CN(CCCc2cn(Cc3ccccc3)nn2)C(=O)NC1c1ccccc1 (stereo not given)
  2.6%[8.59 µM], 2.8%[8.59 µM]
Cc1ncc2c(c1CNC(=O)c1ccccc1F)CCN(C(=O)c1ccc3c(c1)OCCO3)C2
  ?, 4.8%
CCCn1c(=O)c2[nH]c(-c3ccccc3)nc2n(CCC)c1=O
  ?, ?
O=C(Cn1cc(COc2c(F)c(F)cc(F)c2F)nn1)c1ccc(O)cc1
  -22.3%, 17.5%
CC(=O)OC[C@H]1O[C@H](C#Cc2ccc(C)cc2C)C=C[C@H]1OC(C)=O
  ?, -2.3%[8.59 µM]
C[C@H](O)CON1C(=O)c2ccccc2C1=O
  -1.0%, 5.5%
NCCCCN
  -0.7%, 7.8%
CCOC(=O)C(C)(C)Oc1ccc(Cl)cc1
  7.1%&0.2%&0.6%&-4.2%, -1.5%&23.5%&-9.2%&30.7%
COC1=CC2C(=O)C(C1=O)[C@H](c1ccccc1)[C@H]2C (stereo not given in full)
  1.0%[8.59 µM], -3.1%[8.59 µM]
COc1ccccc1-c1ccnc(-n2ncc(C(=O)NCCc3ccccn3)c2C)n1
  -20.2%, -16.7%
CCN1C(=NCc2cccc(C(F)(F)F)c2)NC(c2cccc(F)c2)C(C(=O)OC)=C1C (stereo not given)
  11.8%[8.59 µM], 36.0%[activator][8.59 µM]
Cc1cc(-c2ccccn2)cc(C)c1C=Cc1cncc(-c2nn[nH]n2)c1
  38.2%, -21.4%
COc1cccc(CO[C@H]2C=C[C@@H](c3ccccc3)O[C@H]2CBr)c1
  23.9%[8.59 µM], 31.3%[activator][8.59 µM]
Cc1c(C(=O)NCC2COCCO2)cnn1-c1nccc(-c2cccs2)n1 (stereo not given)
  8.0%, 77.2%[activator]
COc1ccc(C2CC(=O)Oc3cc4c(cc32)OCO4)cc1 (stereo not given)
  -20.5%, 37.6%
CCCCCCC(=O)OC1CC(C)(C)NC(C)(C)C1
  -0.4%&-2.8%, 2.1%&-1.1%
CO[C@H]1[C@H](NC(=O)c2ccsc2)c2ccccc2C12CCN(Cc1ccc3c(c1)OCO3)CC2
  -29.1%, ?
Oc1cc(O)c2c(c1)O[C@H](c1ccc(O)c(O)c1)[C@@H](O)C2
  -7.9%, 8.8%
COc1c(O)c(O)c2cc(OC)c3c(OC)cc(=O)c4c5c(=O)c(OC)c(C(C)=O)c6c5c(c1CC=6C)c2c34
  -8.6%, -8.2%
COc1ccc(-c2cc(C(=O)O)no2)cc1
  2.8%, 19.7%
CC/C=C\C/C=C\C/C=C\C/C=C\C=C\C(O)CCCC(=O)O (stereo not given)
  -11.7%, 3.4%
C=C1c2c(Cl)ccc(O)c2C(O)=C2C(=O)[C@]3(O)C(O)=C(C(N)=O)C(=O)[C@@H](N(C)C)[C@@H]3[C@@H](O)[C@H]12
  -7.9%, ?
CC(C)=CCCC1(C)C=Cc2c(O)c3c(c(CC=C(C)C)c2O1)OC12C(=CC4CC1C(C)(C)OC2(C/C=C(/C)C(=O)O)C4O)C3=O (stereo not given)
  4.47µM*, 3.55µM*
NCCN
  -15.1%, 3.2%
COc1ccc([C@]23Cc4cc(OC)c(OC)cc4[C@H](O2)C2=C(CC4(CCCCC4)OC2=O)O3)cc1
  -2.9%[8.59 µM], 2.0%[8.59 µM]
CCn1c(-c2ccccc2F)nc2cc(NC(C)=O)cc(C(=O)N(C)Cc3ccc4nccnc4c3)c21
  -26.7%, -0.6%
O=[S+]1([O-])C[C@@H](N2CC[C@@H](O)C2)[C@@H](COCc2ccccc2)N1
  5.6%, 23.2%

# Continuation.
# The line under a structure holds: Lassa entry, Marburg entry
CC1=CC(=O)C2=C(C)CC[C@H]3[C@H](C)C(=O)O[C@@H]3C12 (stereo not given in full)
  -7.2%, -4.6%
CCc1cccc(NC(=O)Nc2ccc(Oc3ccc4nc(NC(=O)OC)[nH]c4c3)cc2)c1
  nt, ?
CCCCC1=CC2=C(OC(C)=O)C(=O)C(C)(OC(=O)c3ccco3)C(=O)C2=CO1 (stereo not given)
  1.0%, -31.3%
CC1CCN(CC[C@H]2CCCN2S(=O)(=O)c2cccc(O)c2)CC1
  2.6%, -8.7%
CC[C@H]1C(c2ccc(F)cc2)=NN(c2ccccc2)[C@@H]1CO
  -27.0%, 1.5%
O=C1CCC=C1C(O)CCc1ccccc1 (stereo not given)
  0.1%, 0.8%
COc1ccc(NC(=O)c2ccc(Br)o2)cc1
  -3.5%, 43.1%[activator]
CC1=CC[C@@H](COc2ccccc2)O[C@@]2(C1)C(=O)N(Cc1ccccc1C(F)(F)F)c1ccccc12
  -17.2%[8.59 µM], 1.2%[8.59 µM]
Cn1cnc([N+](=O)[O-])c1Sc1ncnc2nc[nH]c12
  ?, 10µM*!
CN1CCN(C2CN(Cc3ccccc3)S(=O)(=O)C2)CC1 (stereo not given)
  12.9%, 20.9%
Cc1cccc(CNc2ncncc2-c2cccc(C#N)c2)c1
  4.9%, -9.2%
CN1C[C@H](C(=O)N[C@]2(C)O[C@@]3(O)[C@@H]4CCCN4C(=O)[C@H](Cc4ccccc4)N3C2=O)C=C2c3cccc4[nH]cc(c34)C[C@H]21
  -23.7%, -11.3%
COC(=O)c1sc(-n2cnc3cc(OC)c(OC)cc32)cc1OCc1ccccc1C(F)(F)F
  nt, ?
Cc1ccc2c(c1)C(=O)C1(O)CCN(c3ccccc3)C1=N2 (stereo not given)
  7.1%&-2.8%, 20.2%&42.8%
CC(C)c1c(O)ccc2c1CCC1[C@@](C)(C=O)CCC[C@@]21C (stereo not given in full)
  ?, ?
COC(=O)[C@@H]1CCCN1C(=O)c1cc(NC(=O)c2ccccc2)cc2ncn(C3CCCC3)c12
  -5.5%, 3.5%
COC(=O)/C=C/c1cccc([C@H]2[C@@H]3C=CC[C@@H](C)[C@@H]3C(=O)N2Cc2ccccc2)c1
  ?, ?
CN(C)CCOC(c1ccc(Cl)cc1)c1ccccn1 (stereo not given)
  -6.1%&2.1%, ?
Cc1ccc(C)c(C(=O)N2CCC(C3(c4ccccn4)NC(=O)N(CC4CCCO4)C3=O)CC2)c1 (stereo not given)
  -10.0%, 13.0%
C[C@H]1COc2c(C3(N)CC3)c(F)cc3c(=O)c(C(=O)O)cn1c23
  -13.1%, -12.4%
CC(=O)Nc1c(I)cc(I)c(C(=O)O)c1I
  -11.7%, 9.7%
COC(=O)c1cc(OC)c(=O)c2c(OC)c(OC)ccc2c1
  -6.7%, -5.6%
COc1ccc([C@H]2C[C@H](n3cc(COC(=O)c4ccccc4)nn3)[C@@H](O)CN2C(=O)C2CCCCC2)cc1
  nt, ?
CCC(=O)Nc1ccc(O)cc1
  -12.3%, -5.7%
CCCCC[C@H](O)/C=C/[C@@H]1[C@@H](C/C=C\CCCC(=O)O)[C@H]2CO[C@@H]1C2
  2.8%&-18.6%, 11.1%&3.0%
CN(C(=O)Cc1ccccc1)[C@H](CN1CCCC1)c1ccccc1
  -1.8%&2.0%, ?
CCOC(=O)CN(C)C(=O)c1cnn(-c2ncc3c(n2)-c2ccccc2CCC3)c1C
  22.7%, 41.7%[activator]
O=C(c1cccs1)N1C[C@@H](O)[C@@H](n2cc(C3CC3)nn2)C[C@@H]1c1ccc(Cl)cc1
  nt, 7.0%
Cc1ccc(S(=O)(=O)NC(=O)N[C@@H](C)Cc2ccccc2)cc1
  -11.4%, -3.5%
C=C1[C@@H]2CC[C@@H](C2)C1(C)C
  5.3%, 2.1%

# Looked up above:
# CC1CCN(CC[C@H]2CCCN2S(=O)(=O)c2cccc(O)c2)CC1 | Marburg entry: -8.7%
# CC[C@H]1C(c2ccc(F)cc2)=NN(c2ccccc2)[C@@H]1CO | Lassa entry: -27.0%
# CN1CCN(C2CN(Cc3ccccc3)S(=O)(=O)C2)CC1 (stereo not given) | Lassa entry: 12.9%

# Next section.
# The line under a structure holds: Lassa entry, Marburg entry
O=C(/C=C\c1ccc(O)c(O)c1)O[C@@H](Cc1ccc(O)c(O)c1)C(=O)O
  -16.4%, ?
COc1cc(=O)n2c(c1C(=O)N(C)Cc1nonc1C)CCN(Cc1ccccc1Cl)CC2
  ?, -12.4%
CSc1cc2c(cc1C(F)(F)F)N(C(=O)Nc1cccnc1)CC2
  -4.9%&4.4%, 3.2%&11.6%
CSc1nnc(CNS(=O)(=O)c2ccc(F)cc2F)n1-c1ccccc1C
  -14.4%, -5.0%
CCCCOCN(C(=O)CCl)c1c(CC)cccc1CC
  -23.5%, -14.1%
COc1ccccc1CNCCS(=O)(=O)NCc1ccccc1
  14.8%, -1.2%
CN1CCN(CCc2ccc(Cl)c(Cl)c2)CC1
  ?, 17.8µM*!
CCCCC/C=C\C\C=C/C=C/C=C/[C@@H](SCC(N)C(=O)NCC(=O)O)[C@@H](O)CCCC(=O)O (stereo not given in full)
  10.8%, -6.1%
COC(=O)C1(C(=O)OC)C/C=C\Cc2ccccc2[C@@H]1C[N+](=O)[O-]
  0.251µM*!, -3.6%&10.5%&7.8%

# An excerpt of these results, with each value named:
smiles: CSc1nnc(CNS(=O)(=O)c2ccc(F)cc2F)n1-c1ccccc1C
  Lassa entry: -14.4%
  Marburg entry: -5.0%
smiles: CCCCOCN(C(=O)CCl)c1c(CC)cccc1CC
  Lassa entry: -23.5%
  Marburg entry: -14.1%

# A portion of the library, so the mix of outcomes need not match the whole.
